Rango-impB inh – prevents formation of the Rango-importin beta complex; Rango CFP/YFP FRET sensor + importin beta, 45 min; Potency, µM (titrated, usually from 92.2 µM), inactives show at the top dose inhibition of complex formation; hit rate 0.031% among 340,000; AID 540263; active = rising FRET ratio curve, often small or poorly fitted; inconclusive = mostly compound fluorescence or quenching in the first reads; inactive = flat curves in all reads;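 further: potency means the concentration at half of the fitted maximal effect; 0% = DMSO wells and 100% = buffer wells lacking importin beta; nearly all actives have a fitted effect of over 15% in size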
Target sequence (Q14974 whole entry, looked up): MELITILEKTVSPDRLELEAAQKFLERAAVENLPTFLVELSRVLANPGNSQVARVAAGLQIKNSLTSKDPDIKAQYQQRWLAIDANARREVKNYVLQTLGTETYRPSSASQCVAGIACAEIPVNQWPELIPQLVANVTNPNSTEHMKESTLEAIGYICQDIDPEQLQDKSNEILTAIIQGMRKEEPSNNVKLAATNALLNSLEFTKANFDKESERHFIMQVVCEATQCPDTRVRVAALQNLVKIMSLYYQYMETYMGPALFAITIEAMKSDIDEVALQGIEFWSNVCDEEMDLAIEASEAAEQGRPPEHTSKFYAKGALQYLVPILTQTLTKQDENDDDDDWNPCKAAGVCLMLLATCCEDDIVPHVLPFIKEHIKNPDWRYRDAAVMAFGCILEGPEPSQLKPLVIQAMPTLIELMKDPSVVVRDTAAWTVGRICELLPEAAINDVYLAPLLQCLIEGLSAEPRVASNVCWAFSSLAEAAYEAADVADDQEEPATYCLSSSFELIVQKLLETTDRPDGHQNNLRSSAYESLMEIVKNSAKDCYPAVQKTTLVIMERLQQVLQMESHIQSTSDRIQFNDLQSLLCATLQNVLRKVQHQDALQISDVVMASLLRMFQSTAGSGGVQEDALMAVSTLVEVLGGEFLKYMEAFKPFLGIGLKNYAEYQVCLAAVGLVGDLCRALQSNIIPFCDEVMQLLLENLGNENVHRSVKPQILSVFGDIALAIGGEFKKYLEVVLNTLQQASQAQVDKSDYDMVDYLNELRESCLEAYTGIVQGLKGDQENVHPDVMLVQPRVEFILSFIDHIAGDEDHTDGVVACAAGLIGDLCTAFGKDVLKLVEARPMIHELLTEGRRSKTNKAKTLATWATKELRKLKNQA
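Inhibition scored from the CFP 486 nm/YFP 530 nm FRET ratio 45 min after adding 0.125 microM importin beta to 50 nM Rango biosensor preincubated 5 min with compound (room temperature, PBS with DTT, Tween-20, BSA). No-importin wells as positive control.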
Rango release inh – prevents RanGTP from dissociating the Rango-importin beta complex | Biochemical FRET Rango-importin beta, RanGTP-induced dissociation | Potency, µM (series often up to 46.1 µM), for the others: at the top dose activity change, negative = inhibition | hit rate 0.071% among 340,000 | AID 540253; active means falling FRET ratio curve, often poorly fitted, with flat reads before Ran was added; inconclusive means other falling curves, or compound fluorescence or quenching; inactive means flat or rising ratio curve;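 further: potency means the concentration at half of the fitted maximal effect; % of control where 0% means no effect; nearly all actives have a fitted effect of over 45% in size; -100% = wells without RanGTP and RCC1; the record marks most hits as doubtful in a second field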
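FRET read at 45 min, room temperature: inhibitors block the CFP/YFP signal rise when RanGTP (0.6 uM Ran, 2 mM GTP, 0.2 uM RCC1) frees Rango (0.1 uM) from importin beta (0.25 uM). Pre-read after 5 min compound exposure flags interference.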
GLA inh pH 4.5 – blocks human alpha-galactosidase A at pH 4.5. 230,000 tested, under 10 active. AID 1467. purified enzyme, 4-MU-alpha-Gal fluorescence, pH 4.5. activity change, negative = inhibition, % at 105 µM. P06280; inconclusive = small, poorly fitted or top-dose-only inhibition, or a rising curve; inactive = flat fitted curve, though single readings scatter; no compound was filed as active;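 further: 0% = full activity with enzyme and -100% = basal without enzyme; dose as in the result columns while the protocol names 77 µM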
miR-21 reporter – miR-21 reporter, rising signal; AID 2288; HeLa miR-21 FLuc reporter, luciferase, 48 h; Potency, µM (doses to about 38.3 µM), inactives show at the top dose reporter change, positive = more light; 340,000 tested, under 10 active; active = well fitted rising curve with a large enough effect; inconclusive = small, poorly fitted or top-dose-only effect; inactive = no such curve, though single readings can be large or run the other way;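 further: % of control where 0% means no effect; miR-21 action dims this reporter so a rising signal means less miR-21 action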
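HeLa cells stably expressing CMV-driven firefly luciferase with a downstream miR-21 binding sequence, endogenously expressing miR-21, were treated with titrations (up to about 40uM final) for 48 hours at 37 degree Celsius. Luciferase luminescence was read after lysis.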
Numbers without * were called inactive; ? = inconclusive; / = not tested or not shown; & = joins results of further samples.

nr	mol	Rango-impB inh	Rango release inh
1	COc1cc(OC)cc(C(=O)NC(C)CCc2ccccc2)c1 (centres undefined)	-3.1%	-4%
2	CCOc1ccc(CN2CCN(Cc3cccc4nonc34)CC2CCO)cc1 (centres undefined)	4.1%	-9%
3	COc1ccc(S(=O)(=O)N(C)c2ccc(C(=O)NC3CC3)cc2)cc1	-1.9%	-3%
4	C/C(=N\NC(=S)NCc1ccccc1)c1ccccc1	5.1%	-7%
5	CSc1ccc(-c2sc(Nc3ccccc3)n[n+]2-c2ccc(F)cc2)cc1	?	2%
6	O=C1CCCCC1(O)Cc1ccc2c(c1)OCO2 (centres undefined)	5.4%	-3%
7	CCOC(=O)C1CCC2(CC1)C(C#N)=C(N)Oc1n[nH]c(C)c12 (centres undefined)	-4.9%	0%
8	Cc1cc(C)c(C)c(S(=O)(=O)N2CCN(c3ccc(O)cc3)CC2)c1C	-2.4%	1%
9	O=C(Nc1ccc(F)cc1)c1oc2ccccc2c1NC(=O)C1CC1	1.4%	12%
10	COc1ccc(CN(C)C(=O)COC(=O)c2c(-c3ccccc3Cl)noc2C)cc1	-0.5%	4%
11	CN(CC(=O)O)S(=O)(=O)c1ccc2oc3ccccc3c2c1	?	12%
12	O=C(Cc1cccs1)NCc1ccco1	-1.5%	-1%

nr	GLA inh pH 4.5	miR-21 reporter
1	/	19%
2	5	-3%
3	/	-1%
4	-2	-43%
5	/	-2%
6	/	/
7	14	-8%
8	?	-1%
9	/	10%
10	0	0%
11	/	-4%
12	2	-5%

Additional records follow.
nr	mol	Rango-impB inh	Rango release inh
13	CC1=C(C(=O)OCC(Cl)(Cl)Cl)N2C(=O)C(NC(=O)Cc3ccccc3)C2SC1 (centres undefined)	1.2%	18%
14	COc1cc(/C=N/NC(=O)c2cccc3ccccc23)cc(OC)c1O	0.1%	-6%
15	CCOc1ccc(C(=O)NC2CCN(C(=S)Nc3ccccc3C)CC2)cc1	-0.7%	18%
16	COc1ccc(CNC(=O)C2(CC3CC(c4ccccc4)=NO3)CCN(C(=O)CCCCCBr)CC2)cc1 (centres undefined)	-1.5%	-8%
17	Cc1cc(C)c(S(=O)(=O)NCc2ccc3c(c2)cc(C)n3C)c(C)c1	?	-17%
18	CC(C)(C)c1ccc2c(c1)C(=O)c1ccccc1C2=O	-3.2%	-19%
19	Cc1c(Cl)cccc1NC(=O)CC1SC(=NCC2CCCO2)NC1=O (centres undefined)	-1.0%	-13%
20	Cc1cc(-c2nc3ncccc3o2)ccc1NC(=O)CC(C)C	-1.0%	-19%
21	CC(=O)Nc1cccc(NC(=O)Nc2cccc(Cl)c2C)c1	1.6%	0%
22	COc1cccc(C(=O)NCCSc2ccc(Br)cc2)c1	-1.4%	3%
23	CCOC(=O)N1CCc2c(sc3nc[nH]c(=O)c23)C1	-2.5%	-12%
24	O=C(O)CCn1nnc2ccccc21	-3.9%	1%

nr	GLA inh pH 4.5	miR-21 reporter
13	6	-2%
14	/	-10%
15	12	-2%
16	/	/
17	-24	-2%
18	2	-50%
19	1	6%
20	4	-18%
21	14	-9%
22	-1	-2%
23	-9	-7%
24	-15	10%

Later entries
nr	mol	Rango-impB inh	Rango release inh
25	Cc1cc(=O)[nH]n(CCO)c1=O	-2.5%	22%
26	COc1cccc(NC(=O)CSc2ccc(-c3sc(C)nc3C)nn2)c1	-1.3%	-4%
27	O=C1c2ccccc2C(Nc2ccc3nc(-c4cccnc4)[nH]c3c2)N1Cc1ccco1 (centres undefined)	0.2%	9%
28	Cc1ccccc1N1C(=O)CC(c2c[nH]c3ccccc23)C1=O (centres undefined)	-1.3%	13%
29	CCn1c(C)cc(C=C2C(=O)c3ccccc3C2=O)c1C	?	?
30	O=C(NC(=S)N1CCN(c2ccc([N+](=O)[O-])cc2Cl)CC1)c1ccco1	-2.1%	-1%
31	O=S(=O)(Nc1ccc(Cl)cc1NS(=O)(=O)c1ccccc1)c1ccccc1	0.0%	-16%
32	O=C1CCC(C(=O)OCc2cc(Cl)ccc2OC(F)F)N1 (centres undefined)	0.4%	1%
33	Cc1ccccc1CSc1nnc(NC(=O)Cc2cccs2)s1	-0.9%	2%
34	CCC(=O)N1CCN(c2ccc(NC(=O)c3ccccc3)cc2)CC1	-1.7%	-2%
35	CCOC(=O)C1CCCN(Cc2cccs2)C1 (centres undefined)	-2.1%	1%
36	O=C(Cc1ccccc1[N+](=O)[O-])NNC(=O)Nc1ccc2c(c1)OCO2	1.6%	1%

nr	GLA inh pH 4.5	miR-21 reporter
25	-5	2%
26	/	15%
27	20	-17%
28	3	0%
29	-1	-64%
30	1	-5%
31	/	/
32	2	-3%
33	4	-12%
34	0	-21%
35	1	-5%
36	/	-2%

The results go on:
nr	mol	Rango-impB inh	Rango release inh
37	COc1ccc(NC(=S)Nc2ccccc2Cl)cn1	5.1%	4%
38	COc1cc(C(=O)NCc2nnc(SCC(=O)NCc3ccco3)o2)cc(OC)c1OC	-1.1%	4%
39	Cc1ccc(NC(=O)c2cccc(S(=O)(=O)N(C)C3CCCCC3)c2)nc1	-11%	23%
40	CC1CCCC(C)N1C(=O)CSc1nnnn1-c1cccc2c1CCCC2 (centres undefined)	-0.7%	1%
41	CCOC(=O)c1nc(NCc2ccccc2)c2ccccc2n1	-0.8%	0%
42	CCS(=O)(=O)c1nc(S(=O)(=O)c2ccc(Cl)cc2)c(NCCOC)s1	0.5%	-16%
43	Brc1ccc(C2NCCS2)cc1 (centres undefined)	0.8%	0%
44	CC(=O)c1sc(NC(=O)c2cccc(N3C(=O)CCC3=O)c2)nc1-c1ccccc1	-2.2%	0%
45	Cc1nn(-c2ccccc2)c2c1CC(=O)Nc1ccccc1-2	-2.8%	2%
46	O=C(CN1C(=O)CCC1=O)NC(=O)NC1CCCC1	-2.2%	-1%
47	Cc1ccc(C)c(N2N=C(C(=O)Nc3ccc(N4CCOCC4)cc3)CCC2=O)c1	1.6%	18%
48	O=c1c2ccccc2c2ccccc2c(=O)n1Cc1ccco1	-0.2%	-11%

nr	GLA inh pH 4.5	miR-21 reporter
37	-7	-10%
38	/	1%
39	/	/
40	-2	3%
41	-11	-3%
42	-4	2%
43	-14	2%
44	/	/
45	/	/
46	3	2%
47	/	/
48	-3	1%

New compounds follow.
nr	mol	Rango-impB inh	Rango release inh
49	COC(=O)c1c(NC(=O)C(C)(C)C)sc2c1CCN(Cc1ccccc1)C2	?	?
50	CC1CCN(C2CC(=O)N(c3ccc(Br)cc3Br)C2=O)CC1 (centres undefined)	-4.2%	0%
51	O=C(Nc1cccc(-c2nc3ccccc3s2)c1)C1=COCCO1	3.7%	13%
52	CC(=O)C1=C(O)C(=O)N(c2nccs2)C1c1ccc(Br)cc1 (centres undefined)	-6.7%	4%
53	CCn1c(=S)sc2c(=O)[nH]c(SCC(=O)Nc3cc(OC)ccc3OC)nc21	-1.1%	7%
54	Cn1c(=O)n(Cc2ccccc2)c(=O)c2c1nc(NCC1CCCO1)n2Cc1ccccc1 (centres undefined)	-1.2%	-1%
55	O=C(NCCO)C1(c2ccccc2)CCCC1	-3.3%	2%
56	CCc1cc2c(=O)oc(-c3ccc(Br)cc3)nc2s1	3.0%	-6%
57	NC(=O)c1ccc[n+]([C@H]2O[C@@H](COP(=O)([O-])OP(=O)(O)OC[C@H]3O[C@@H](n4cnc5c(N)ncnc54)[C@H](O)[C@@H]3O)[C@H](O)[C@@H]2O)c1	1.1%	-16%
58	Cc1nn(-c2ccccc2)c(N2CCCC2)c1/C=N/Nc1ccc(S(=O)(=O)Nc2ccccc2)cc1[N+](=O)[O-]	-3.0%	11%
59	COc1cc(/C=N\Nc2ccc([N+](=O)[O-])cn2)ccc1OCC(=O)O	/	/
60	CN1C(=O)CSc2ccc(NC(=O)NCc3cccnc3)cc21	-1.3%	10%

nr	GLA inh pH 4.5	miR-21 reporter
49	/	6%
50	-5	1%
51	2	-34%
52	-2	-5%
53	/	3%
54	3	1%
55	0	-5%
56	/	-1%
57	/	/
58	0	-2%
59	-9	-16%
60	-5	-1%

Later entries.
nr	mol	Rango-impB inh	Rango release inh
61	CN(C)CCCN1C(=O)c2oc3ccccc3c(=O)c2C1c1cccs1 (centres undefined)	?	?
62	CCOc1cccc(CN2CCC(Oc3ccc(C(=O)NCc4ccccn4)cc3)CC2)c1	?	-2%
63	NS(=O)(=O)c1ccc(CCNC(=O)C(=O)NCC2OCCN2S(=O)(=O)c2cc(F)ccc2F)cc1 (centres undefined)	-0.1%	?
64	COCC(=O)Nc1nnc(Cc2ccc(OC)cc2)s1	1.7%	-16%
65	NS(=O)(=O)c1ccc(CCNC(=O)CN2C(=O)NC(c3ccccc3)(c3ccccc3)C2=O)cc1	0.1%	-11%
66	c1cncc(CNc2ncnc3sc4c(c23)CCCC4)c1	5.1%	8%
67	CCOCC(=O)Nc1nc(-c2ccccc2)c(CC)s1	-4.4%	-2%
68	Cc1ccc(O)c([C@H](CCN(C(C)C)C(C)C)c2ccccc2)c1	0.3%&9.3%	-4%&-9%
69	COC(=O)COc1cccc(NC(=O)c2cccc(C)c2)c1	2.0%	3%
70	Cc1ccc(CN2C(=O)CSC2c2ccc(F)cc2)cc1 (centres undefined)	-0.5%	12%

nr	GLA inh pH 4.5	miR-21 reporter
61	3	-8%
62	/	-1%
63	/	1%
64	0	-16%
65	/	/
66	3	-12%
67	-4	1%
68	2	-2%
69	8	-5%
70	/	-8%

17 entries out of the list, ordered by formula weight, high to low:
nr	mol	Rango-impB inh	Rango release inh
57	NC(=O)c1ccc[n+]([C@H]2O[C@@H](COP(=O)([O-])OP(=O)(O)OC[C@H]3O[C@@H](n4cnc5c(N)ncnc54)[C@H](O)[C@@H]3O)[C@H](O)[C@@H]2O)c1	1.1%	-16%
58	Cc1nn(-c2ccccc2)c(N2CCCC2)c1/C=N/Nc1ccc(S(=O)(=O)Nc2ccccc2)cc1[N+](=O)[O-]	-3.0%	11%
63	NS(=O)(=O)c1ccc(CCNC(=O)C(=O)NCC2OCCN2S(=O)(=O)c2cc(F)ccc2F)cc1 (centres undefined)	-0.1%	?
62	CCOc1cccc(CN2CCC(Oc3ccc(C(=O)NCc4ccccn4)cc3)CC2)c1	?	-2%
53	CCn1c(=S)sc2c(=O)[nH]c(SCC(=O)Nc3cc(OC)ccc3OC)nc21	-1.1%	7%
52	CC(=O)C1=C(O)C(=O)N(c2nccs2)C1c1ccc(Br)cc1 (centres undefined)	-6.7%	4%
61	CN(C)CCCN1C(=O)c2oc3ccccc3c(=O)c2C1c1cccs1 (centres undefined)	?	?
59	COc1cc(/C=N\Nc2ccc([N+](=O)[O-])cn2)ccc1OCC(=O)O	/	/
51	O=C(Nc1cccc(-c2nc3ccccc3s2)c1)C1=COCCO1	3.7%	13%
56	CCc1cc2c(=O)oc(-c3ccc(Br)cc3)nc2s1	3.0%	-6%
60	CN1C(=O)CSc2ccc(NC(=O)NCc3cccnc3)cc21	-1.3%	10%
70	Cc1ccc(CN2C(=O)CSC2c2ccc(F)cc2)cc1 (centres undefined)	-0.5%	12%
69	COC(=O)COc1cccc(NC(=O)c2cccc(C)c2)c1	2.0%	3%
66	c1cncc(CNc2ncnc3sc4c(c23)CCCC4)c1	5.1%	8%

nr	GLA inh pH 4.5	miR-21 reporter
57	/	/
58	0	-2%
63	/	1%
62	/	-1%
53	/	3%
52	-2	-5%
61	3	-8%
59	-9	-16%
51	2	-34%
56	/	-1%
60	-5	-1%
70	/	-8%
69	8	-5%
66	3	-12%

nr	mol	Rango-impB inh	Rango release inh
64	COCC(=O)Nc1nnc(Cc2ccc(OC)cc2)s1	1.7%	-16%
67	CCOCC(=O)Nc1nc(-c2ccccc2)c(CC)s1	-4.4%	-2%
55	O=C(NCCO)C1(c2ccccc2)CCCC1	-3.3%	2%

nr	GLA inh pH 4.5	miR-21 reporter
64	0	-16%
67	-4	1%
55	0	-5%

This is a subset, so the mix of outcomes need not match the whole.
